Screening data deposited in PubChem by several laboratories.
Mtb H37Rv: M. tuberculosis H37Rv growth inhibitors, H37Rv strain (AID 1626); M. tuberculosis H37Rv growth inhibition; higher % means a stronger effect; inhibition, % at 10 µM; hits with a dose series show IC50 in µM; actives 0.95% (n = 220,000);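 active means confirmed in a dose series; inconclusive means inhibition above 80% but not taken into the dose series; inactive means below 80% or under 30% at every dose of the series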;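 further: bacteria incubated seven days before Alamar blue readout; 0% = bacteria only wells and 100% = bacteria with antibiotic wells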
YopH inh: YopH tyrosine phosphatase inhibitors, primary screen, biochemical, fluorescence Ex485/Em525; actives 0.16% (n = 140,000); inhibition, %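 (about 10 µM by stock and volumes)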;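 active means inhibition of 50% or more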;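 further: controls were vehicle for no effect and minimum signal wells for full effect; inactives centre near -20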
Arbovirus inh: antivirals against arbovirus infection, primary screen, cell-based, full library, 10K replicate subset; arbovirus infection cell-based antiviral screen; inhibition, % at 10 µM; actives 0.37% (n = 200,000);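 active means inhibition from about 30%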;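 further: bluetongue infection of BSR cells; cell survival read as ATP light after 72 h; 0% = infected wells without compound and 100% = uninfected wells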
RecA splice inh: Mtb RecA intein splicing inhibitors, primary screen, biochemical, fluorescence, HTS; inhibition, %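 (about 9 µM by stock and volumes)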; cell-free RecA intein splicing; actives 0.75% (n = 290,000); in the data active means inhibition above about 30%; inconclusive means no clear call, values can overlap the other calls;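 further: 0% = vehicle wells and 100% = reference inhibitor control wells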
Target sequence (P9WHJ3 whole entry, looked up, canonical isoform): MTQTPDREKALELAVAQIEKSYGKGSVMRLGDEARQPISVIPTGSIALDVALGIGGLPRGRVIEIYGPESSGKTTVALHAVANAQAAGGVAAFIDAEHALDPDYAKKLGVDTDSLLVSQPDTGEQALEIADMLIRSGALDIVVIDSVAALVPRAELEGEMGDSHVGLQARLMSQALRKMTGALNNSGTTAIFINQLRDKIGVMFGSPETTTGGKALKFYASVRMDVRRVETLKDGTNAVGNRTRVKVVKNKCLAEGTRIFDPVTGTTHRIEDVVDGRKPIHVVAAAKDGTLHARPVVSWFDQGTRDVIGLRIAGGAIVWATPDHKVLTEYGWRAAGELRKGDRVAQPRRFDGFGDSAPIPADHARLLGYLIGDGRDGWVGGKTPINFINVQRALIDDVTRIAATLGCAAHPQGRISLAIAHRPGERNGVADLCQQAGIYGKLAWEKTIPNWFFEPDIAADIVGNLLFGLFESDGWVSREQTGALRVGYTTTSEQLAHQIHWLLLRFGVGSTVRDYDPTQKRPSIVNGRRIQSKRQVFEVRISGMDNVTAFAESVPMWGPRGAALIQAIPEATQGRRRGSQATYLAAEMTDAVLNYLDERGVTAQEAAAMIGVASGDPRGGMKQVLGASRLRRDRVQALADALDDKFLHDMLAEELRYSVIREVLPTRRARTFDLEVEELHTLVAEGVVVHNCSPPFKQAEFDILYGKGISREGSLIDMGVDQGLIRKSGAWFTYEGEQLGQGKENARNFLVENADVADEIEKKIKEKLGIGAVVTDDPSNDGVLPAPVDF
Mtb bLac sens: beta-lactam sensitization of Mtb H37Rv, H37Rv; M. tuberculosis H37Rv growth with meropenem, percent inhibition; hits of this screen are not shown here; inhibition, % at 25 µM; actives 0.27% (n = 330,000);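 active means about 74% or more and at least 40 points above the plate without the antibiotic, then above 30% in a dose series; inconclusive means first-round hits that could not be retested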;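 further: growth measured after seven days incubation then overnight dye step; 0% = bacteria only wells and 100% = bacteria with antibiotic; twin plates without the antibiotic show which effects depend on it; some results filed as inactive read as strong as hits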
Arbovirus inh repeat: also measured in Arbovirus inh; calls as there; inhibition, %; measured here: 10K subset replicate screen; many hits read low in the repeat;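 first of two repeat runs on a subset; 0% = infected and 100% = uninfected wells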
An asterisk follows results filed as active; u = inconclusive; x = not tested or not shown. Not all compounds are listed; rates above refer to the full screens.

Start of the data: the first seven entries, to show the layout:
SMILES	Mtb H37Rv	YopH inh	Arbovirus inh	RecA splice inh	Mtb bLac sens	others
CC(=O)Nc1ccc(NC(=O)COc2ccc3c(c2)CCC3)cc1	10%	x	-9	-1.1	9
COc1ccc(CCNC(=O)C(C)c2ccc([N+](=O)[O-])cc2)cc1 (stereo not given)	15%	x	2	-1.4	-1
COc1ccc(-c2oc3ncnc(NCCCN4CCOCC4)c3c2-c2ccc(OC)cc2)cc1	6%	-31	-21	-0.7	97
O=C(O)CC(Cc1ccccc1)(C(=O)O)c1ccccc1 (stereo not given)	x	x	x	0.9	-1
CCCC(O)(c1ccc(Cl)cc1)C(CN1CCOCC1)c1ccc(Cl)cc1 (stereo not given)	x	x	x	21	u
CC(C)Cn1c(C23CC4CC(CC(C4)C2)C3)n[nH]c1=S	x	x	x	4.7	-5
CN(C)/C=C1\NC(=S)N(c2ccc(Cl)cc2)C1=O	0%	x	3	x	-2

All compounds of this part (from the top)
SMILES	Mtb H37Rv	YopH inh	Arbovirus inh	RecA splice inh	Mtb bLac sens	others
CC(=O)Nc1ccc(NC(=O)COc2ccc3c(c2)CCC3)cc1	10%	x	-9	-1.1	9
COc1ccc(CCNC(=O)C(C)c2ccc([N+](=O)[O-])cc2)cc1 (stereo not given)	15%	x	2	-1.4	-1
COc1ccc(-c2oc3ncnc(NCCCN4CCOCC4)c3c2-c2ccc(OC)cc2)cc1	6%	-31	-21	-0.7	97
O=C(O)CC(Cc1ccccc1)(C(=O)O)c1ccccc1 (stereo not given)	x	x	x	0.9	-1
CCCC(O)(c1ccc(Cl)cc1)C(CN1CCOCC1)c1ccc(Cl)cc1 (stereo not given)	x	x	x	21	u
CC(C)Cn1c(C23CC4CC(CC(C4)C2)C3)n[nH]c1=S	x	x	x	4.7	-5
CN(C)/C=C1\NC(=S)N(c2ccc(Cl)cc2)C1=O	0%	x	3	x	-2
Cc1cc(C(=O)Nc2ccccc2C(=O)N2CCCCC2)ccc1[N+](=O)[O-]	-7%	x	-3	1.4	-3
COC(=O)c1cc2c(cc1Cl)SC(=NCCCN1CCOCC1)NS2(=O)=O	x	-34	-7	-3.3	-6
COCCn1c(-c2ccc(C#N)cc2)nc2c1c(=O)[nH]c(=O)n2Cc1ccccc1	2%	x	9	1.1	15
CCC(C)NS(=O)(=O)c1ccc(NC(=O)C2CCCO2)cc1 (stereo not given)	-3%	x	-1	0.7	-8
CN(C)CCCNCCCNC(=O)/C=N/O	-2%	-16	2	0.2	-10
COc1ccc(C(=O)NCCc2nnc3ccc(SCC(=O)N4CCOCC4)nn23)cc1	x	x	x	-4.2	24
Nc1ccc(N2CCOCC2)c2nonc12	0%	x	-20	95*	0
CC1CCCCC12NC(=O)N(CC(=O)c1ccc3c(c1)OCO3)C2=O (stereo not given)	x	x	x	0.0	-6
COc1ccc(S(=O)(=O)NC2CC(=O)N(c3ccc4c(c3)OCCO4)C2)cc1 (stereo not given)	x	x	x	-0.5	3
COc1ccc(-c2csc(CCn3nc(C)cc3C)n2)cc1	12%	x	21	3.1	2
CN(C)c1ccc(CNS(=O)(=O)c2ccc3c(c2)NC(=O)CS3)cc1	x	x	x	-1.3	3
CCCCCn1c(NC(=O)c2ccco2)c(S(=O)(=O)c2ccc(C)cc2)c2nc3ccccc3nc21	18%	9	-29	80*	-5
Cc1ccccc1S(=O)(=O)Cc1ccc(C(=O)N2CCN(c3ccc(F)cc3)CC2)o1	-5%	1	-15	-3.8	-7
CSc1ccc(CN2CCN(C(=O)COc3cccc(C)c3)CC2)cc1	0%	x	-1	1.0	3
CCOC(=O)c1sc(NS(=O)(=O)c2ccc(NC(C)=O)cc2)nc1C	-13%	-58	11	-1.0	-3
O=[N+]([O-])c1cccc(NC(=S)Nc2nc(-c3ccccc3Cl)cs2)c1	x	x	x	2.0	59
O=C(CNC(=O)c1cccc(F)c1)N/N=C/c1cc(Br)ccc1OCc1ccccc1	3%	-17	-3	x	8
O=Cc1cn(CC(O)CN2CCCCC2)c2ccccc12 (stereo not given)	-4%	x	10	-2.2	-3
Nc1ccc(S(=O)(=O)Nc2nccc(/C=C/c3ccccc3F)n2)cc1	3%	x	-7	x	2
O=C(c1ncc[nH]1)c1ccccc1C(=O)N1CCOCC1	-4%	4	7	-0.4	-6
O=C1Nc2ccccc2C(c2ccccc2)=NC1O (stereo not given)	x	x	x	-2.4	-8
Cc1ccc(/C=N\NC(=O)C2CN(S(=O)(=O)c3ccccc3)CCN2S(=O)(=O)c2ccccc2)cc1 (stereo not given)	6%	-9	14	3.5	-1
O=C(Cc1cccs1)Nc1ccc(Cl)cc1	5%	-25	-7	4.5	-9
CC(C)CN(Cc1cc2ccccc2[nH]c1=O)C(=O)c1cccnc1	-8%	-10	6	0.0	-9
C=CCSc1nc2sc(C)c(C)c2c(=O)[nH]1	5%	-35	4	3.2	0	Arbovirus inh repeat=-4
O=S(=O)(c1ccccc1F)N1CCN(CCc2ccccc2)CC1	x	x	x	-0.1	6
CC1=C(C(=O)OCc2ccccc2)C(c2ccccc2OS(=O)(=O)c2ccccc2[N+](=O)[O-])NC(=O)N1CCCC(=O)O (stereo not given)	2%	x	x	-0.4	-8
O=C(O)CN=C1NC2(CCCC2)Cc2ccccc21	-25%	-21	1	3.0	-4
Cc1ccc(-n2c(-c3ccc(Cl)cc3)n[nH]c2=S)cc1	x	x	x	0.9	8
O=C(OCCN(C1=NS(=O)(=O)c2ccccc21)c1ccccc1Cl)c1ccc(Cl)cc1	-12%	-16	0	11	-5
COc1cccc(NS(=O)(=O)c2ccc3c(c2)C2C=CCC2C(c2ccc(C(=O)O)cc2)N3)c1 (stereo not given)	-7%	-5	16	13	-10
C(/C=C/c1ccco1)=N/N1CCN(c2ccccc2)CC1	2%	-16	-2	2.5	35
CN(C)c1ccc(/C=C/C=C/c2sc3ccccc3[n+]2C)cc1	-3%	x	x	1.2	-6
CC(=O)Nc1ccc(S(=O)(=O)Oc2ccc(C(=S)N3CCCCC3)cc2)cc1	5%	-15	12	-2.7	2
N=c1oc2cc(O)ccc2cc1C(=O)Nc1ccc(Br)cc1	x	x	x	-496	94
NC(=O)c1ccc(NC(=O)CS(=O)(=O)c2cn(CC(=O)N3CCCC3)c3ccccc23)cc1	x	x	x	-1.5	-2
N#CCc1ccc(NC(=O)c2ccc(S(=O)(=O)N3CCCC3)cc2)cc1	x	x	x	0.4	-2
CCn1c(N)c(C(=O)NCCOC)sc1=S	-3%	-18	4	-1.9	-6
CCn1c(=O)cc(SCC(=O)Nc2cccc(SC)c2)c2ccccc21	-10%	-22	-4	-3.2	4
CCOC(=O)C1CCN(C(=O)c2cccc(NS(=O)(=O)c3ccc(F)c(F)c3)c2)CC1	4%	x	2	3.2	8
CCOC(=O)c1sc(NC(=O)C2CC(=O)N(c3ccccc3C)C2)nc1C (stereo not given)	x	x	x	-8.3	5
Cc1ccc(-c2cc(C(=O)Nc3cnn(C(C)C)c3)no2)cc1	4%	6	2	0.5	14
CSc1nsc(SC)c1C(=O)OCC(F)(F)F	2%	-21	6	7.8	0
CC(=O)NC(Cc1ccc(N(CCCl)CCCl)cc1)C(=O)O (stereo not given)	-8%	-12	3	0.5	-2
CC(=O)Nc1ccc(Br)c2ccccc12	3%	x	-2	1.4	5
Cc1cc2ncn(/N=C/c3ccc4c(c3)OCO4)c2cc1C	71%	x	17	13	99
c1cc(CNCCc2ccc3c(c2)OCO3)ccn1	x	x	x	-2.9	-6
CCc1ccc(OCC(=O)NC(=S)Nc2ccc(S(=O)(=O)NC3CCCCC3)cc2)cc1	6%	24	-2	0.6	82
CCC(NC(=O)OC(C)(C)C)C(=O)Oc1cc(C)cc2oc(=O)c3c(c12)CCC3 (stereo not given)	1%	0	1	3.9	0
CC(=O)Oc1ccc(-c2cccc(C(=O)O)c2)cc1	4%	-28	-1	1.8	2
CCOC(=O)c1c(NC(=O)c2c(C(=O)O)cccc2[N+](=O)[O-])sc2c1CCCC2	x	x	x	1.2	u
CN(C)/C=C(/C(=O)c1ccc(Cl)cc1)n1cncn1	3%	x	8	-2.9	-1
CN(Cc1cccs1)C(=O)Cn1cnc2ccccc2c1=O	-6%	x	1	-2.0	3
Additional records
SMILES	Mtb H37Rv	YopH inh	Arbovirus inh	RecA splice inh	Mtb bLac sens	others
CCc1cccc(C)c1NC(=O)COC(=O)Cc1ccsc1	-1%	-21	5	-7.8	-1
O=C1CCN(Cc2ccccc2)CCN1CCSc1ccccc1	x	x	x	1.4	-6
O=C(COC(=O)c1ccc2[nH]c3c(c2c1)CCCC3)Nc1ccc(Cl)cc1Cl	52%	0	-12	0.5	51
COC(=O)Cc1cc(=O)[nH]c(/N=C(\N)Nc2ccccc2)n1	0%	-18	6	2.5	-10
CC(C)CCNC(=O)COc1ccc2c3c(c(=O)oc2c1)CCC3	-10%	-35	-4	0.6	5
CC(C)N1CCc2c(sc(NC(=O)CCS(=O)(=O)c3ccccc3)c2C#N)C1	x	x	x	-11	u
CCOc1ccc(NC(=O)CN(C)C(=O)CC2OC(=O)c3ccccc32)cc1OCC (stereo not given)	x	x	x	-1.2	-5
CCCCC(=O)Nc1cccc(-c2nnc(-c3ccccc3)o2)c1	37%	-26	-3	25	99
CCN1CCc2nc(NC(=O)c3ccc(S(=O)(=O)N(C)C)cc3)sc2C1	-5%	x	8	3.0	-1
CCC(Sc1ccc2nnc(-c3cccnc3)n2n1)C(=O)O (stereo not given)	-4%	-13	10	-1.4	1	Arbovirus inh repeat=0
COc1ccc(NS(=O)(=O)c2ccc3c(c2)OCCO3)cc1OC	x	x	x	0.2	-2
CCOC(=O)C1CCCN(C(=S)Nc2ccc(C)cc2C)C1 (stereo not given)	-4%	-23	3	0.6	5
CC1CCCN(C(=O)COC(=O)C2CCN(S(=O)(=O)c3ccc(Cl)c(C(F)(F)F)c3)CC2)C1 (stereo not given)	x	x	x	-2.5	-3
O=C(c1cc(S(=O)(=O)N2CCOCC2)ccc1F)N1CCCc2ccccc21	-18%	-9	8	-2.0	-17
O=C(CS(=O)(=O)c1ccccc1)Nc1ccc(N2CCOCC2)cc1	-4%	x	3	9.3	-6
CN(C)CCNC(=O)c1sc2nc(-c3ccccc3)cc(C(F)(F)F)c2c1N	x	x	x	-4.4	45
Nc1cc(N)nc(SCc2nnnn2-c2ccc(Cl)cc2)n1	-3%	-6	1	-1.6	2
CCN(CC)CCNC(=O)c1ccc(NC(=O)c2cc(S(=O)(=O)N3CCCCC3)ccc2C)cc1	x	x	x	-0.2	0
COc1ccc(NC(=O)CN2CCC(C(=O)c3ccc(C)cc3)CC2)c(OC)c1	x	x	x	4.3	67
CC(=O)Nc1ccc(NC(=O)COc2ccc(S(=O)(=O)N3CCCC3)cc2)cc1	x	x	x	-0.5	2
COc1ccc(CNc2ncc(-c3ccccc3)n2C)c2ccccc12	x	x	x	8.9	57
C[N+]1(C2CCC3CCCC2C3O)CCCC1 (stereo not given)	4%	-20	14	1.4	8
O=C(COC(=O)C1Cc2ccccc2CN1C(=O)c1ccccc1)Nc1ccc(SC(F)F)cc1 (stereo not given)	-4%	-21	0	-0.2	8
O=C(CSc1nnc(-c2ccncc2)n1C1CCCCC1)Nc1cccc(O)c1	0%	-36	5	-1.3	-10
CC(=O)c1ccc(NC(=O)Nc2cccc3ccccc23)cc1	x	x	x	-1.6	8
COc1ccc(/C=C2/S/C(=N/N=C3\CC4CCC3(C)C4(C)C)NC2=O)cc1 (stereo not given)	x	-35	0	-6.3	93
Cc1ccc2c(C)c(C(=O)N(C)C(C)c3ccncn3)oc2c1C (stereo not given)	x	x	x	-1.2	3
O=C(COc1ccc(Br)cc1)Nc1ccc2c(c1)C(=O)NC2=O	-2%	x	11	-0.6	2
CCOC(=O)CSc1nnc2c(n1)C1(C)CCC2C1(C)C (stereo not given)	-7%	-12	6	0.2	3
Cc1ccccc1-c1nc(CN2CCC(C(=O)N3CCC(C(N)=O)CC3)CC2)c(C)o1	-5%	-4	4	-1.2	0	Arbovirus inh repeat=-1
CCN(CC)c1ccc(/C=N/NC(=S)NCc2ccccc2)c(O)c1	6%	-13	-26	-5.8	0
CN(C)c1ccccc1C(=O)c1ccccc1N(C)C	-6%	-25	-20	-0.2	0
CN(C)C(CNc1ncnc2sccc12)c1ccccc1 (stereo not given)	5%	x	0	-2.5	0
O=CN1CCN(C(=O)COc2ccc(Cl)cc2Br)CC1	3%	-18	-8	1.0	-4
Oc1sc(C=Nc2ccccc2)c2ccccc12	-1%	-25	-14	-85	6
